StopGo reporter = High Throughput Screening for Foot and Mouth Disease Virus Antivirals. AID 1159524, 2015. 1.2% of 410,000 active. Potency, µM (doses to about 57.9 µM), inactives show top-dose signal change, negative = less light. human cells with a luciferase reporter of 2A StopGo recoding; control for the full effect not named in the record; active = well fitted falling curve with a large enough effect; inconclusive = small, poorly fitted or top-dose-only effect; inactive = no such curve, though single readings can be large or run the other way; tested in HEK293T cells; further: on the % scale 0 is the no-effect control and ±100 the full control effect; nearly all actives have a fitted effect of over 45% in size; luciferase light after 4 h
Lassa entry inh = qHTS for Inhibitors of binding or entry into cells for Lassa Virus. AID 540256, 2011. Potency, µM (series often up to 37.9 µM), inactives show top-dose activity change, negative = inhibition, hits mostly inhibitors. 1.2% of 300,000 active. Lassa virus pseudotype entry inhibition, cell reporter; control for the full effect not named in the record; active means well fitted inhibition curve with a large enough effect; inconclusive means small, poorly fitted or top-dose-only effect, or effect the other way; inactive means flat fitted curve, though single readings scatter; tested in HEK293 cells; further: on the % scale 0 is the no-effect control and ±100 the full control effect; nearly all actives have a fitted effect of over 50% in size; luciferase read-out
NS1 function inh = qHTS Assay for Inhibitors of Influenza NS1 Protein Function; 0.4% of 270,000 active; AID 2326, 2010; Potency, µM (series often up to 46.1 µM), without a hit: at the top dose activity, positive = more growth; S. cerevisiae slowed by influenza A NS1, growth recovery by OD600; further: actives are rising curves; nearly all actives have a fitted effect of over 50% in size
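Compounds were scored for reversing the slow growth caused by influenza A NS1 in S. cerevisiae, measured by optical density at 600 nm. Assay medium contained 2% galactose at pH 6.0; NS1-free yeast of the same strain were the positive control.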
RE007 growth inh = qHTS Assay for Inhibitors of the HIV-1 protein Vpr; S. pombe RE007 Vpr strain, BacTiter-Glo ATP luminescence, 24 h; control for the full effect not named in the record; Potency, µM (top dose mostly 92.2 µM), without a hit: top-dose activity change, negative = less growth; 0.21% of 360,000 active; AID 651644, 2012; active = well fitted falling curve with a large enough effect; inconclusive = small, poorly fitted or top-dose-only effect; inactive = no such curve, though single readings can be large or run the other way;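 further: on the % scale 0 is the no-effect control and ±100 the full control effect; nearly all actives have a fitted effect of over 50% in size; the assay follows cell death caused by Vpr and the record does not say whether a fall means rescue or toxicity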
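Fission yeast strain RE007, carrying one chromosomally integrated HIV-1 vpr copy, was seeded at OD 0.01 in PMG+AL medium with 23 nL pinned compound. After 24 h at 30 °C and 99% humidity, viability was read by BacTiter-Glo luminescence.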
SARS PLP yeast = qHTS of Yeast-based Assay for SARS-CoV PLP; Potency, µM (highest dose often 32.9 µM), without a hit: top-dose activity, positive = growth rescue; 0.19% of 330,000 active; S. cerevisiae expressing SARS-CoV PLpro, growth rescue; control for the full effect not named in the record; further: 0% is about no effect; nearly all actives have a fitted effect of over 55% in size; growth read by luminescence after 48 h
Cruzain noTriton = qHTS Assay for Promiscuous and Specific Inhibitors of Cruzain (without detergent). AID 1476, 2009. Potency, µM, without a hit: max response, negative = inhibition, hits mostly inhibitors. purified cruzain, Z-FR-AMC fluorescence, no detergent. Cruzipain (Trypanosoma cruzi), P25779. 2.3% of 200,000 active; active means well fitted curve in the direction sought with a large enough effect; inconclusive means small, poorly fitted or top-dose-only effect, or another doubt; inactive means no such curve, though single readings can be large; an effect the other way counts as inactive or inconclusive;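 further: plate controls were enzyme without inhibitor for no effect and buffer without enzyme for full effect; nearly all actives have a fitted effect of over 40% in size; top concentration of the series not given in the record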
Target sequence (P25779 123-467 limits assumed): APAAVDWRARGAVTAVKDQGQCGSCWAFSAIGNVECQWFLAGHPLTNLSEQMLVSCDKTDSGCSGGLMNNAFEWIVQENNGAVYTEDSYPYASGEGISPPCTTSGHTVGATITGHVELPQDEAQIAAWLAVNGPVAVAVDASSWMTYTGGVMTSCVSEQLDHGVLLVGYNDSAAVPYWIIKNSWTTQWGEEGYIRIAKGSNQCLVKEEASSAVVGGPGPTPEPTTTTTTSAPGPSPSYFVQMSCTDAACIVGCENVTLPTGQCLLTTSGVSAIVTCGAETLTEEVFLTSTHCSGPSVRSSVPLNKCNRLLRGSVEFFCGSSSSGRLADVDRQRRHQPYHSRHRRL
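Purified cruzain at 1.5 nM, pre-incubated 15 min with compound at room temperature in 100 mM sodium acetate pH 5.5, 5 mM DTT, 0.00005% Triton X-100. Reaction started with 2 uM Z-FR-AMC; AMC fluorescence increase over 60 s gives rate.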
Cruzain inh Det = qHTS Assay for Promiscuous and Specific Inhibitors of Cruzain (with detergent) | purified cruzain, Z-FR-AMC fluorescence, 0.01% Triton | Potency, µM, without a hit: max response, negative = inhibition, hits mostly inhibitors | 0.43% of 200,000 active; active means well fitted curve in the direction sought with a large enough effect; inconclusive means small, poorly fitted or top-dose-only effect, or another doubt; inactive means no such curve, though single readings can be large; an effect the other way counts as inactive or inconclusive;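 further: plate controls were neutral wells for no effect and buffer without enzyme for full effect; nearly all actives have a fitted effect of over 40% in size; top concentration of the series not given in the record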
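Sodium acetate buffer (100 mM, pH 5.5) containing 5 mM DTT and 0.01% Triton X-100 hosted 1.5 nM cruzain and test compound for 15 min at room temperature. Cleavage of 2 uM Z-FR-AMC was then tracked by fluorescence.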
Marburg entry inh = qHTS for inhibitors of binding or entry into cells for Marburg Virus. Marburg virus pseudotyped entry inhibition, cell reporter; control for the full effect not named in the record; about a third of the inactives were read at about 46 µM. AID 540276, 2011. Potency, µM (highest dose often 37.8 µM), for the others: at the top dose activity change, negative = inhibition, most hits filed as inhibitors. 1.8% of 300,000 active; active = well fitted inhibition curve with a large enough effect; inconclusive = small, poorly fitted or top-dose-only effect, or effect the other way; inactive = flat fitted curve, though single readings scatter; tested in HEK293 cells; about a fifth of its hits are not listed in these tables; further: on the % scale 0 is the no-effect control and ±100 the full control effect; luciferase read-out
* hit, by the source's call; ? = inconclusive; . = no result given; & = joins results of further samples; [ ] = dose if it differs, or a comment. Unless noted, the call rests on the fitted dose curve; in most records, active means well fitted rising curve with a large enough effect; inconclusive means small, poorly fitted or top-dose-only effect; inactive means no such curve, though single readings can be large or run the other way. Potency means the concentration at half of the fitted maximal effect.

Start of the data: the first 2 entries (preview)
SMILES	StopGo reporter	Lassa entry inh	NS1 function inh	RE007 growth inh	SARS PLP yeast	Cruzain noTriton	Cruzain inh Det	Marburg entry inh
O=C(NCCCN1CCCC1=O)C1CCC(CNS(=O)(=O)c2ccc(Cl)cc2)CC1 (stereo unspecified)	-8%	.	-2%	-11%	-9%	.	.	.
Cc1cc(NC(=O)c2cc(-c3ccccc3)on2)no1	15%	20%	-2%	-17%	-2%	?	4.3%	?

The whole of this part (from the top)
SMILES	StopGo reporter	Lassa entry inh	NS1 function inh	RE007 growth inh	SARS PLP yeast	Cruzain noTriton	Cruzain inh Det	Marburg entry inh
O=C(NCCCN1CCCC1=O)C1CCC(CNS(=O)(=O)c2ccc(Cl)cc2)CC1 (stereo unspecified)	-8%	.	-2%	-11%	-9%	.	.	.
Cc1cc(NC(=O)c2cc(-c3ccccc3)on2)no1	15%	20%	-2%	-17%	-2%	?	4.3%	?
CCc1cccc(C)c1NC(=O)CCCSc1nc2ccccc2s1	-7%	0%	-22%	?	-16%	-5%	-6.0%	-21%
COc1ccc(-c2cc(C(F)(F)F)nc(SCC(=O)NCc3cccs3)n2)cc1OC	-10%	?	?	-5%	8%	?	-9.8%	-5%
CCN1CCN(Cc2nc3ccc([N+](=O)[O-])cc3c(=O)n2-c2ccccc2F)CC1	4%	.	2%	-8%	1%	.	.	.
O=C(NCCN1CCOCC1)C1CCN(S(=O)(=O)N2CCCC2)CC1	-12%	-6%	.	6%	1%	.	.	4%
NS(=O)(=O)c1ccc(CNS(=O)(=O)c2ccc3ccccc3c2)cc1	14%	?	15%	6%	-8%	.	.	2%
COc1ccc(N=C2C(=O)Nc3ccccc32)cc1	31%[activator]	?	-13%	-8%	-5%	-6%	1.4%	6%
Cc1ncc(COCc2ccccc2)c(CO)c1OCc1ccccc1	4%	?	.	-1%	.	.	.	0%
Fc1ccc(Br)cc1/C=N/n1cnnc1	-27%	8%	-25%	13%	-4%	-9%	-3.0%	14%
COc1ccc(N=C(C)c2c(O)n(C)c(=O)n(C)c2=O)c(OC)c1	-9%	12%	-22%	7%	-3%	-9%	-6.8%	6%
Nc1nc(SCc2ccccc2Cl)ns1	30%	2%	-9%	-29%	-23%	6%	-3.6%	11%
CN(C)c1ccc(Nc2c3c4c(cccc4n(C)c2=O)C(=O)c2ccccc2-3)cc1	?	?	14%	3%	4%	-24%	-5.1%	?
CC(C)(C)c1ccc(OCCCNC2CCCC2)cc1	-17%	?	-4%	11%	0%	.	.	6.3µM*
CCOC(=O)c1ccccc1NC(=O)Nc1ccc(OC)c(OC)c1	-9%	6%	12%	4%	1%	0%	0.4%	-3%
O=C(c1cc(COc2ccc(F)cc2F)on1)N1C[C@H]2CC[C@H]1C2	6%	?	-10%	11%	-14%	.	.	?
CCOc1ccc(NC(=O)C2CCN(C(=O)C3CC(=O)N(c4ccc(C)cc4)C3)CC2)cc1 (stereo unspecified)	-2%	9%	-9%	-3%	2%	.	.	?
O=C(NCCc1ccccc1)C(=O)NCC1OCCCN1S(=O)(=O)c1cccs1 (stereo unspecified)	-4%	.	-1%	-2%	-7%	.	.	.
O=C(O)CSCCn1cccn1	5%	-8%	-3%	6%	-3%	2%	0.6%	-1%
O=C(C1CC1)N1CCc2cc(Br)cc(S(=O)(=O)N3CCN(c4ccccc4)CC3)c21	4%	?	.	.	.	10%	-0.9%	8%[46.1 µM]
COc1cc(CCC(=O)N2CCN(S(=O)(=O)c3ccc(C)c(C)c3)CC2)cc(OC)c1OC	?	?	-5%	1%	-5%	?	2.6%	?
CC(=O)Nc1cccc(C(=O)/C=C/c2ccc(/C=C/C(=O)c3cccc(NC(C)=O)c3)cc2)c1	.	.	10%	.	-4%	-2%	1.4%	.
Cc1ccccc1CCNC(=O)c1ccc2c(c1)nc1n2CCCCC1	?	?	.	.	.	6%	-0.4%	.
NC(=O)c1ccc(Nc2ccc3c(c2)CCC3)c([N+](=O)[O-])c1	-24%	.	-6%	8%	-3%	.	.	?
C=CCNCCOc1ccc(C(C)(C)c2ccccc2)cc1	-18%	4%	8%	-10%	-13%	-5%	1.9%	?
CCn1nc(C)c(/C=N/NC(=O)Cn2nnc(N)n2)c1C	2%	.	3%	-10%	-2%	.	.	.
Cc1ccc(S(=O)(=O)c2c(COC(=O)c3ccc(Cl)cc3)c(-c3ccccc3)nn2C)cc1	0%	8%	2%	-18%	3%	-29%	1.9%	16%
COc1ccc(S(=O)(=O)N(C)CC(=O)NCC2CCCO2)cc1OC (stereo unspecified)	-4%	-9%	7%	-24%	-1%	.	.	6%
CCCn1cc(S(=O)(=O)c2ccc(Cl)cc2)c(=O)c2cc(OC)ccc21	4%	.	-2%	5%	-1%	.	.	.
COc1ccccc1/C=C/C(=O)NC1CC2CCC1C2 (stereo unspecified)	45%[activator]	.	-29%	-12%	-4%	.	.	.
CCOc1cc(CNCc2cccnc2)cc(Br)c1OCC(N)=O	-2%	-6%	-3%	-5%	2%	.	.	?
N=C(N)SCc1ccccn1	-10%	-24%	19%	-11%	12%	0%	0.0%	?
CC(=O)c1cccc(NC(=O)Nc2cc3c(cc2N2CCCC2)n(C)c(=O)n3C)c1	-11%	2%[46.1 µM]	.	.	.	-12%	-3.8%	?
O=C(Cn1nnc2ccccc21)c1ccc(Br)cc1	35%[activator]	22%	-2%	3%	1%	.	.	?
CCOc1ccc(C2NC(=O)Cc3cc(OC)c(OC)cc32)cc1 (stereo unspecified)	15%	0%[46.1 µM]	2%	-5%	-1%	.	.	17%[46.1 µM]
CCCCC1=CC2=C(c3ccco3)C(=O)C(C)(OC(=O)c3ccc(OC)cc3)C(=O)C2=CN1CC1CC1 (stereo unspecified)	-24%	.	2%	6%	0%	.	.	-16%&-16%[14.2 µM]
CCNc1ccc(Br)cc(C(=O)/C=C/c2ccc(Cl)cc2)c1=O	?	-5%	-31%	?	-32%	-19%	-20%	?
COc1ccc(OC)c(N2CC(O)(c3cccs3)[N+]3=C2SCCC3)c1 (stereo unspecified)	-15%	-2%	.	-1%	0%	.	.	?
Cc1ccc(C(=O)Nc2nc3ccc(S(C)(=O)=O)cc3s2)s1	-16%	?	12%	-6%	1%	-29%	-1.2%	-3%
C=CC[N+]1(CC=C)CCOCC1	?	.	-3%	4%	1%	.	.	.
CCCCC(=O)Oc1ccccc1C1SCc2cc(C)c(C)cc2CS1	-14%	5%	-6%	-19%	-5%	?	4.0%	6%
O=C(Nc1cccnc1Cl)c1ccc2c(Cl)c3c(nc2c1)CCC3	-63%	?	.	-8%	-8%	.	.	?
CN(C)S(=O)(=O)c1cccc(NC(=O)CSc2nc3c(cc2C#N)C(=O)CC(C)(C)C3)c1	20µM*	?	-3%	-6%	-2%	7%	-7.7%	?
CN1CCN(CCCNC(=O)c2ccc3nc(Cc4ccccc4)oc3c2)CC1	0%	7%[46.1 µM]	.	.	.	-13%	-1.8%	.
O=C(/C=C/c1nc2ccccc2s1)N1CCCCCC1	30%	-24%[46.1 µM]	.	-19%	-1%	.	.	?
O=C(CCCCn1c(=O)c2ccccc2n(Cc2ccccc2F)c1=O)NCc1ccc2c(c1)OCO2	-24%	-23%[46.1 µM]	.	.	.	0%	-2.0%	22%[46.1 µM]
Cc1nc(-c2ccc(S(=O)(=O)N3CCCN(CCc4ccccc4)CC3)s2)cs1	?	?	-1%	-13%	1%	.	.	?
CCN(CC)CCCNC(=O)c1cn(CC)c2cc(N3CCN(C(=O)c4ccco4)CC3)c(F)cc2c1=O	15%	.	-8%	-11%	-1%	.	.	.
CN(CC(=O)Nc1ccc2c(c1)CCC2)CC(=O)Nc1ccccc1Br	0%	-9%	.	-3%	-4%	.	.	-25%
CCCn1c(SCC(=O)c2cc(C)n(C3CC3)c2C)n[nH]c1=O	15%	15%	.	6%	0%	.	.	?
O=C(COc1coc(CN2CCN(c3ccccc3F)CC2)cc1=O)NC1CCCC1	-29%	4%	.	-7%	-9%	.	.	?
CC(=O)[C@@H]1[C@@H](C)N(Cc2ccccc2)C(=O)N[C@H]1c1cccc(C(F)(F)F)c1	-16%	.	0%	12%	-1%	.	.	?
CN(Cc1cccs1)C(=O)Cc1c[nH]c2ccccc12	50%[activator]	12%	0%	-1%	-2%	14%	-2.5%	?
Cc1nc(NC2=NCN(Cc3ccccc3)CN2)nc2ccccc12	.	.	0%	.	-5%	6%	-0.3%	.
C/C=C(\C)c1nnc(NC(=O)c2ccco2)s1	17%	?	10%	9%	-1%	-7%	3.2%	18%
Cc1cccc(NC(=S)N(CCN(C)C)Cc2cc3cc(C)ccc3[nH]c2=O)c1	-18%	.	-3%	-9%	-2%	.	.	?
Cc1ccc(S(=O)(=O)N2CCC[C@H]2C(=O)NC2CCCCC2)cc1	-29%	?	.	-5%	.	.	.	0%
N/C(=N\OC(=O)C12CC3CC(CC(C3)C1)C2)c1ccccc1	47%[activator]	?	-16%	-25%	3%	3%	-1.7%	?
CN1CCN(CC(O)COc2ccc(C(=O)O)cc2)CC1 (stereo unspecified)	1%	1%	-3%	-1%	?	.	.	0%
COc1cc(C2=NOC(C(=O)NCc3cccs3)C2)cc(OC)c1OC (stereo unspecified)	-24%	?	-2%	-13%	13%	-5%	-8.0%	?
CC1(C(=O)O)Oc2cccnc2NC1=O (stereo unspecified)	9%	7%	.	5%	5%	.	.	-10%[46.1 µM]
CCC(=O)C1CCCN(C(=O)CCc2nnc(-c3ccc4c(c3)OCO4)o2)C1 (stereo unspecified)	-3%	.	-13%	-5%	3%	.	.	.
Cc1ccc(NC(=O)c2ccco2)nc1	-17%	-15%	.	-5%	.	.	.	?

The order is random; any-hit rate near 4.7%.
